gsp antag: qHTS for Antagonists of gsp, the Etiologic Mutation Responsible for Fibrous Dysplasia/McCune-Albright Syndrome: qHTS; 340,000 compounds, 0.4% hits; gsp-mutant cells, cAMP HTRF, 30 min; control for the full effect not named in the record; Potency, µM (series often up to 76.9 µM), inactives show at the highest dose activity change, negative = inhibition, most hits filed as inhibitors; AID 624288, 2012; active = falling curve of any shape with a large fitted effect; inconclusive = falling curve, mostly with a smaller effect; inactive = flat or rising curve; cell line not stated here;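 also: intracellular cAMP measured with PDE inhibitor Ro 20-1724 present during compound exposure; potency is read from the fitted curve at half-maximal effect; % is scaled to controls: 0 for no effect and ±100 for the full control effect; nearly all actives have a fitted effect of over 65% in size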
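HTRF cAMP measurement after 30 min RT detection following 30 min, 37C compound treatment alongside […] (added as 300 uM solution) in G418-selected cells seeded at 2000/well and grown 16–24 h.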
ClpP mod: qHTS Assay for Activators of ClpP | ATP-dependent Clp protease proteolytic subunit (Bacillus subtilis (strain 168)), P80244 | purified B. subtilis ClpP, FRET peptide cleavage, 20 min | Potency, µM (highest dose often 57.5 µM), without a hit: top-dose activity change, negative = active | 340,000 compounds, 1.9% hits; active = well fitted falling curve with a large enough effect; inconclusive = small, poorly fitted or top-dose-only effect; inactive = no such curve, though single readings can be large or run the other way; also: potency is read from the fitted curve at half-maximal effect; the source files actives as falling curves though it sought activators and does not explain the sign; nearly all actives have a fitted effect of over 65% in size; many hits overshoot -100%
Target sequence (P80244 whole entry, looked up): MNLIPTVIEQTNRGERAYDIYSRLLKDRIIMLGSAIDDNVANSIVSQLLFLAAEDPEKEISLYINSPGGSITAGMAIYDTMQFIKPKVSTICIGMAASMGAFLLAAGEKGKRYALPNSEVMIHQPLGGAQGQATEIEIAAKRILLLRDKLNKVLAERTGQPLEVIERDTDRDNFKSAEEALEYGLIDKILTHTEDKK
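Buffer: 100 mM Tris/HCl pH8, 100 mM KCl, 0.05% low protease BSA, 2.5% glycerol, 0.01% Tween-20. ClpP 10 microg/mL final; 20 min RT; delta FRET normalized to ADEP and DMSO controls.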
Menin MLL FP FL: qHTS Assay for Inhibitors Targeting the Menin-MLL Interaction in MLL Related Leukemias: Competition With Fluorescein Labeled MLL-derived Peptide; Fluorescence polarization, fluorescein-MLL peptide displacement from menin; FP activity change, % at 61.4 µM; 290,000 tested, under 10 active; inconclusive = falling polarisation curve, or a change in total fluorescence; inactive = total fluorescence flat and polarisation flat or rising; no compound was filed as active; the % refers to the polarisation; negative = inhibition;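 also: % of control where 0% means no effect; inhibitors lower the polarisation; unlabelled MLL peptide was the positive control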
TRPML1 ag: qHTS for Agonists of the Human Mucolipin Transient Receptor Potential 1 (TRPML1); 410,000 compounds, 0.12% hits; Mucolipin-1 (Homo sapiens), Q9GZU1; activation, % (concentration not given with the values); AID 624414, 2012; TRPML1-expressing cells, Ca2+ dye fluorescence, FDSS; host cell line not named in the record; reference of the full effect not given here; in the data active = activation above about 50%; inconclusive = about 30% to 50%; inactive = below about 30%; also: 0% is about no effect; the text of the record puts the active cut at 80%
Target sequence (Q9GZU1 whole entry, looked up): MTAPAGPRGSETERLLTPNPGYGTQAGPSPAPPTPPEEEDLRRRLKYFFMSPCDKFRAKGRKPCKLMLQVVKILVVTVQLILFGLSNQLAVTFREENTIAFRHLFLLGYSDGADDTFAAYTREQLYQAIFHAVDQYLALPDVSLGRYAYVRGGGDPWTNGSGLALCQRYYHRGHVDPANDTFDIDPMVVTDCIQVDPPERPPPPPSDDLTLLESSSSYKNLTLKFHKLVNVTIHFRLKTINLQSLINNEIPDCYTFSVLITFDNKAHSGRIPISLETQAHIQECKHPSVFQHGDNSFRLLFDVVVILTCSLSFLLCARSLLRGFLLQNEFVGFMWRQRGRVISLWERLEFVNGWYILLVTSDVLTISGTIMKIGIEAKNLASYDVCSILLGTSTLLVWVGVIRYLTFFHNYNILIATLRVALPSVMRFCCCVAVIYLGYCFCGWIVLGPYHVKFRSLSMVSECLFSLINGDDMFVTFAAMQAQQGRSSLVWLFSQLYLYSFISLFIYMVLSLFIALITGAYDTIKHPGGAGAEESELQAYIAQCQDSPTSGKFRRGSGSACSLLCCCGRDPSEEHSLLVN
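Calcium fluorescence on an FDSS kinetic reader gave the read-out. Tet-induced TRPML1-DL cells were plated overnight, dye-loaded (Ca8 with quencher, 45-90 min, room temperature, dark), then read 110 s after compound addition, and again 110 s after 4uM final 54-4 (EC80).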
gsp ag: qHTS for Agonist of gsp, the Etiologic Mutation Responsible for Fibrous Dysplasia/McCune-Albright Syndrome: qHTS; gsp mutant cells, cAMP HTRF, 30 min; control for the full effect not named in the record; 340,000 compounds, 0.13% hits; Potency, µM (doses to about 76.9 µM), for the others: at the top dose activation (cAMP increase), most hits filed as activators; active = well fitted activation curve with a large enough effect; inconclusive = small, poorly fitted or top-dose-only effect, or another doubt; inactive = no such curve, though single readings can be large or run the other way; cell line not stated here;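 also: phosphodiesterase inhibitor Ro 20-1724 added with compounds to block cAMP breakdown; potency is read from the fitted curve at half-maximal effect; nearly all actives have a fitted effect of over 60% in size; about a fifth of the inactives were tested at one dose only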
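Cells stably selected in G418 were plated at 2000/well, grown 16-24 hr, then given compounds in DMSO with the PDE inhibitor […] (300 uM solution added) for 30 min at 37C; cAMP was read by HTRF.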
TRPML1 inh: qHTS for Inhibitors of the Human Mucolipin Transient Receptor Potential 1 (TRPML1); Mucolipin-1 (Homo sapiens), Q9GZU1; AID 624415, 2012; 390,000 compounds, 0.02% hits; activity change, negative = inhibition, % (test concentration not listed); TRPML1-inducible cells, Ca2+ dye fluorescence, FDSS; stronger effect = lower value; inhibition of EC80 agonist-evoked calcium signal; in the data active means activity change below about -50%; inconclusive means about -30% to -50%; inactive means above about -30%;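 also: stimulus is agonist 54-4 at its EC80 concentration; % is scaled to controls: 0 for no effect and ±100 for the full control effect; compound concentration not given in the record; the text of the record puts the active cut at -80%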
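Calcium fluorescence in TRPML1-DL cells induced overnight with Tet: a 110 s read after compound pin addition, then a 110 s antagonist read after challenge with 54-4 at 4 uM final (EC80).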
* hit, by the source's call; u = inconclusive; x = no result given; & = joins results of further samples; [ ] = remark or other dose.

SMILES	gsp antag	ClpP mod	Menin MLL FP FL	TRPML1 ag	gsp ag	TRPML1 inh
CCC(=O)N1CCc2cc(S(=O)(=O)NC(CC(C)C)C(=O)NCc3cccc(OC)c3)ccc21 (configuration not stated)	x	0.2%	x	0.7	x	2.4
O=C(NCc1cccs1)C1CC(=O)N(c2ccc(F)cc2)C1 (configuration not stated)	0.2%	1.6%	-1.5	0.6	2.1%	-5.7
CN(Cc1ncc[nH]1)C(=O)CC1C(=O)NCCN1Cc1c(F)cccc1Cl (configuration not stated)	8.1%	x	0.6	0.3	1.0%[15.4 µM]	37.5
C/C(=N\NC(=O)Cc1ccc(Cl)cc1)c1cccc(NC(=O)c2cccnc2)c1	-14.5%	20.2%	x	-0.4	-5.5%	-8.0
O=C(c1ccccn1)N1CCN(C(=O)c2ccccn2)CC1	12.9%	-4.3%	3.9	1.1	-2.1%	-21.9
CCOc1ccc(NC(=O)c2ccccc2SC)cc1	2.0%	1.9%	0.3	x	u	x
O=C(CSc1nnc(CNC(=O)c2ccccc2)n1-c1ccc(F)cc1)Nc1ccccc1F	x	0.4%	x	1.1	x	-4.3
COc1ccc(N2C(=O)c3ccccc3S2(=O)=O)cc1	2.1%	0.9%	-4.0	x	u	x
CCCC1(CCC)NC(=O)N(CC(=O)Nc2ccc(Cl)c(S(=O)(=O)N3CCOCC3)c2)C1=O	-8.0%	-1.3%	x	2.2	16.3%[15.4 µM]	15.6
CC(=O)c1cccc(OC(=O)Oc2cccc(C(C)=O)c2)c1	12.0%	-3.7%	x	-0.1	3.7%	u
COc1ccc(CNC(=O)c2cnc(C)cn2)c(OC)c1	-7.2%	0.5%	4.0	-0.1	2.4%	-2.1
S=C(Nc1ccccc1Oc1ccccc1)Nc1cccc(Cl)c1Cl	-5.2%	-1.3%	0.0	2.6	5.7%	-24.6
Cc1ccc(CSC2=Nc3ccccc3C3=NC(CCC(=O)N4CCN(c5ccccc5)CC4)C(=O)N23)cc1 (configuration not stated)	x	-16.6%	x	0.9	x	-13.2
CC(C)NC(=O)CC(=O)N/N=C/c1c(F)cccc1Cl	-4.1%	x	0.8	1.2	9.2%	15.4
COc1ccc(C(=O)NC2CCCCCC2)cc1S(=O)(=O)N1CCCc2ccccc21	-15.4%	0.2%	4.0	3.2	-25.4%	6.4
CN1CCN(Cc2nc3c([nH]2)c(=O)[nH]c(=O)n3C)CC1	13.4%	-1.9%	-2.5	-1.0	-12.8%	-1.4
O=C(NCCCN1CCCC1=O)Nc1ccccc1Cl	-3.3%	-2.1%	x	-0.8	u	7.3
COc1ccc(NC(=O)C2CCCN(S(C)(=O)=O)C2)c(OC)c1 (configuration not stated)	-13.5%	x	-2.9	-0.1	21.0%	-0.4
O=C(NC1=NCCCCC1)c1cccc2ccccc12	1.2%	x	7.0	-0.4	6.3%[15.4 µM]	-3.5
NC1=NC(=O)/C(=C\c2ccc(-c3ccc(Cl)cc3)o2)S1	-9.1%	-2.9%	2.9	1.6	-28.5%	-5.7
Cc1cc(Nc2ccc(Br)cc2F)n2ncnc2n1	-4.1%	-1.3%	0.2	0.5	u	8.1
CCCCn1c(N)c(N(CCC(C)C)C(=O)c2c(C)noc2C)c(=O)[nH]c1=O	10.6%	-0.6%	x	-1.1	9.3%	2.8
CC(C)C(NC(=O)c1ccc(F)cc1)C(=O)N1CCC1 (configuration not stated)	-20.2%	1.1%	x	-0.5	u	-18.4
CCc1ccccc1NC(=O)C1CCN(S(=O)(=O)c2cn(C)cn2)CC1	x	0.4%	x	1.2	x	-8.8
COc1ccccc1/C=c1\sc2nc(-c3ccco3)nn2c1=O	-6.1%	-5.1%	20.9	0.0	-0.4%	2.8
CCCCCC(O)(CCN1CCCCC1)c1ccc(OCC)cc1 (configuration not stated)	5.9%	x	8.1	2.7	17.4%[15.4 µM]	-15.8
CCOC(=O)CCC(NC(=O)c1ccccc1C(=O)NC(CCC(=O)OCC)C(=O)OCC)C(=O)OCC (configuration not stated)	5.8%	x	-4.6	1.1	-21.3%	-16.4
COc1ccc(N2CCN(C(=O)CCCCn3c(=O)[nH]c4ccsc4c3=O)CC2)cc1	-3.0%	-3.9%	-1.4	0.2&1.5	u	0.1&17.1
Cc1cc(-c2ccccc2)nc(N(C)NC(=O)C(C)(C)C)c1S(C)(=O)=O	x	x	0.9	-0.3	-6.9%[15.4 µM]	-2.7
CCOC(=O)Cc1cnc(NC(=O)CSc2nc3ncnc(N)c3[nH]2)s1	6.2%	-2.3%	3.9	0.3	21.9%	-8.4

Profiles, looked up by structure.
Cc1cc(-c2ccccc2)nc(N(C)NC(=O)C(C)(C)C)c1S(C)(=O)=O is entered as gsp antag = x; ClpP mod = x; Menin MLL FP FL = 0.9; TRPML1 ag = -0.3; gsp ag = -6.9%[15.4 µM]; TRPML1 inh = -2.7
CCCCn1c(N)c(N(CCC(C)C)C(=O)c2c(C)noc2C)c(=O)[nH]c1=O is entered as gsp antag = 10.6%; ClpP mod = -0.6%; Menin MLL FP FL = x; TRPML1 ag = -1.1; gsp ag = 9.3%; TRPML1 inh = 2.8

Further compounds:
SMILES	gsp antag	ClpP mod	Menin MLL FP FL	TRPML1 ag	gsp ag	TRPML1 inh
CCC(=O)C1CCCN(C(=O)CCc2nnc(-c3ccc4c(c3)OCO4)o2)C1 (configuration not stated)	8.3%	3.5%	-9.3	0.4	u	34.2
CC1CCCN(S(=O)(=O)c2ccc(C(=O)Nc3nnc(-c4ccco4)o3)cc2)C1 (configuration not stated)	-6.6%	0.8%	-1.3	-0.4	15.2%[15.4 µM]	2.7
CCc1ccc(NC(=O)CSc2ccc(-c3cccs3)nn2)cc1	x	-1.2%	x	5.4	x	3.7
Nc1nccnc1C(=O)OCc1nc2sc3c(c2c(=O)[nH]1)CCCC3	-1.6%	-1.8%	x	0.1	3.3%[15.4 µM]	2.0
COc1ccc(/C=C2\CCCC3C2=NN(C(=O)COC(=O)CNC(=O)c2ccccc2)C3c2ccc(OC)cc2)cc1 (configuration not stated)	7.5%	u	0.9	3.2	-10.9%	-3.7
Cc1cccc2sc(NC(=O)CSc3nnnn3C)nc12	7.9%	1.7%	-1.9	1.1	-26.4%	-14.1
Cc1ccc(C)c(C2C(C#N)=C(N)Oc3cc(C)oc(=O)c32)c1 (configuration not stated)	6.6%	-0.1%	-0.2	0.8	-1.0%	34.7
O=C1CC(C(=O)Nc2cccc(Cl)c2)n2ncnc2N1 (configuration not stated)	11.9%	0.0%	-0.2	0.7	1.6%	37.3
O=S(=O)(c1ccc(Cl)s1)N1CCC(Cc2ccccc2)CC1	-9.2%	0.8%	4.9	2.9	-1.7%	34.3
O=C(O)CC/C(=N\Nc1ccccc1[N+](=O)[O-])c1cccs1	-26.4%	x	-4.4	0.6	-10.2%	-8.7
COC(=O)c1sc2nc3c(c(-c4cccs4)c2c1N)CCCC3	4.0%	-2.1%	4.7	1.0	u	-15.0
O=C(c1cn(-c2ccccc2)nc1-c1cccc([N+](=O)[O-])c1)N1CCCCC1	-12.7%	x	-0.7	-0.9	-12.1%[15.4 µM]	6.7
N#Cc1ccsc1NC(=O)CN1CCCCC1	15.0%	0.3%	u	1.0	-9.6%	30.2
C/C(N)=C(/C#N)C(=O)COC(=O)c1cc(-c2cccc3ccccc23)nc2ccccc12	-18.1%	0.1%	6.8	-0.4	-7.9%[15.4 µM]	-14.9
Fc1ccc(CCNc2ncnc3[nH]ncc23)cc1	9.1%	-3.2%	x	0.9	-29.4%	-2.1
COc1ccc(CCN2C(=O)c3[nH]nc(-c4ccccc4O)c3C2c2ccc(O)c(OC)c2)cc1 (configuration not stated)	x	0.1%	x	0.3	x	11.7
Nc1ccc(-c2ccc(N)c([N+](=O)[O-])c2)cc1[N+](=O)[O-]	-7.9%	1.1%	-0.2	0.5	15.5%	-0.6
CCC12CN3CC(C)(CN(C1)C3c1c(C)[nH]c3ccccc13)C2=O (configuration not stated)	x	-1.7%	x	0.6	x	32.8
CCCNC(=O)CSc1nnc(-c2ccco2)n1C	14.0%	-3.9%	1.1	-0.8	-19.9%	-2.6
Cc1ccccc1OCC(=O)Nc1ccc2c(c1)C(=O)N(CCC(=O)O)C2=O	-13.5%	-1.1%	x	0.0	-2.2%	-2.7
O=C(/C(=C/c1ccccc1)n1cncn1)c1ccc(Cl)cc1Cl	-4.6%	-0.7%	-0.9	-0.2	4.5%	-7.7
C=CC(=O)NC(NC(=O)C=C)c1ccccc1F	6.2%	x	-9.0	0.7	-17.4%[15.4 µM]	19.3
CC(=O)c1c(COC(=O)c2ccco2)nc2ccccc2[n+]1[O-]	-2.0%	-1.0%	0.3	0.1	-12.6%	-5.2
COC(=O)C(NS(=O)(=O)c1cccc(S(=O)(=O)NC(C(=O)OC)c2ccccc2)c1)c1ccccc1 (configuration not stated)	-3.7%	2.5%	3.3	0.2	-15.0%	-2.0
CCSc1nnc(NC(=O)Cc2ccc(OC)c(S(=O)(=O)N3CCOCC3)c2)s1	-8.1%	-0.2%	1.0	-0.4	14.6%	-7.0
O=c1oc2cc(OCc3c(F)c(F)c(F)c(F)c3F)ccc2cc1-c1ccccn1	2.6%	15.8µM*	4.1	-0.5	-40.6%	5.7
COc1ccc(OCC(O)CNC(=O)Nc2cccc3ccccc23)cc1 (configuration not stated)	-2.6%	x	-0.5	1.2	17.0%	30.1
CCc1cccc2c(C(=O)COC(=O)/C=C/c3ccc(O)c(OC)c3)c[nH]c12	-9.0%	-15.7%	5.8	0.6	-21.5%	9.2
Cc1cc(C)c(S(=O)(=O)NCCc2cc3cc(C)c(C)cc3[nH]c2=O)c(C)c1	x	-22.4%	x	-1.1	x	43.0
O=C(CSc1n[nH]c(-c2ccc(F)cc2)n1)NCc1ccccc1Cl	x	0.4%	x	1.4	x	-15.8
Cc1ccccc1Cn1c(Cc2ccccc2)nc2ccccc21	-23.6%	1.5%	-3.8	3.9	-14.3%	48.6
CCOC(=O)Cc1csc(NC(=O)Nc2ccc(C)cc2)n1	-7.2%	x	-3.2	2.3	13.7%[15.4 µM]	12.5
Cc1oc(-c2ccccc2F)nc1CS(=O)(=O)CC(=O)NCCc1ccc(Cl)cc1	x	3.0%	x	1.9	x	-24.4
CN(C)c1ccc(CC2C(=O)Nc3ccccc32)cc1 (configuration not stated)	-18.7%	x	-16.0	-0.2	9.2%[15.4 µM]	27.9
